Compound activity: PubChem BioAssay, National Center for Advancing Translational Sciences (NCATS)
VACV mCherry inh: inhibitors of vaccinia virus infection (mCherry reporter signal). Vaccinia virus mCherry reporter infection, fluorescence; about a quarter of the inactives have no number. Potency, µM (highest dose often 36.5 µM), for the others: top-dose activity change, negative = inhibition, actives largely listed as inhibitors. 310,000 tested, 0.63% active; active = well fitted inhibition curve with a large enough effect; inconclusive = small, poorly fitted or top-dose-only effect; inactive = no such curve, though single readings can be large or run the other way; tested in A549 cells; also: nearly all actives have a fitted effect of over 35% in size; inactives centre near -10
VACV Venus inh: vaccinia inhibition (Venus reporter); Vaccinia virus Venus reporter expression, fluorescence; Potency, µM (highest dose often 36.5 µM), without a hit: top-dose activity change, negative = inhibition, actives largely listed as inhibitors; 330,000 tested, 0.46% active; AID 720580; active means well fitted inhibition curve with a large enough effect; inconclusive means small, poorly fitted or top-dose-only effect; inactive means no such curve, though single readings can be large or run the other way; tested in A549 cells; also: nearly all actives have a fitted effect of over 30% in size; inactives centre near -10
An asterisk follows results filed as active; i = inactive; ? = inconclusive; / = no result given; [ ] = dose if it differs, or a comment. % is scaled to controls: 0 for no effect and ±100 for the full control effect; potency is read from the fitted curve at half-maximal effect.

SMILES	VACV mCherry inh	VACV Venus inh
CC(=O)Nc1ccc(NC(=O)C(C)OC(=O)C2CCN(S(=O)(=O)c3cccs3)CC2)cc1 (stereo unspecified)	-17%	-12%
CCOc1ccccc1-c1nc(CN2CCC(C(=O)N3CCOCC3)CC2)c(C)o1	i	-4%
Cc1ccc(-n2c(-c3cccs3)nc3ccccc3c2=O)cc1	-1%	-10%
COc1ccc(S(=O)(=O)N(C)CC(=O)NCc2cccnc2)cc1C	/	-23%
Cc1cc(Br)ccc1NC(=O)c1sc2nc3n(c(=O)c2c1C)CCCC3	-3%[7.34 µM]	-11%[7.34 µM]
CCN(Cc1ccccc1)S(=O)(=O)c1ccc(-c2coc(C)n2)cc1	2%	0%
CCOC(=O)c1c(C)[nH]c(C)c1C(=O)COc1ncnc2cc([N+](=O)[O-])ccc12	-6%	-8%
N#Cc1ccccc1-c1cncnc1NCc1cccnc1	-7%	-6%
COc1ccc(OC)c(/C=N/Nc2cc(C)nc(N3CCOCC3)n2)c1	-20%	-6%
COc1cccc(-c2nc(CS(=O)(=O)CC(=O)NCCCN3CCOCC3)c(C)o2)c1	-5%	-8%
COC(=O)CCNC(=O)N1CCN(c2nnc(C)c3c(C)n(-c4ccccc4)nc23)CC1	-1%	3%
CCN(CC)CCCNC(=O)CCc1c(C)nc2c(c1C)c(=O)n(C)c(=O)n2C	7%	4%
Cc1cccc(CNC(=O)c2cnn(-c3nccc(-c4ccccc4F)n3)c2C)n1	-10%	-1%
COc1ccc(CN(C)C(=O)C(Cc2ccccc2)NC(=O)c2ccccc2)cc1F (stereo unspecified)	-23%	-29%
CC(C)c1ccc(CN2CCC2(C)C(=O)Nc2ccc3c(c2)OCO3)cc1 (stereo unspecified)	-8%	-13%
Cn1c(N)c(C(=O)COC(=O)c2ccc3c(c2)C(=O)N(c2ccc(Cl)cc2)C3=O)c(=O)n(C)c1=O	-10%	16%
CCOCCc1nnc(NC(=O)C2CC(=O)N(c3ccc(OCC)cc3)C2)s1 (stereo unspecified)	-3%	-6%
CCOc1ccc(N(CC(=O)N2CCOCC2)S(=O)(=O)c2ccc(SC)cc2)cc1	10%	-2%
CN(C)c1ccc(-c2nc(-c3ccco3)no2)cc1[N+](=O)[O-]	i	-14%
Cn1cc(Cl)c(C(=O)Nc2cccc(Cl)c2Cl)n1	i	-13%
CCn1nnc2cc(C(=O)Nc3ccc(OC)cc3)ccc21	-4%	3%
O=C1OC(c2ccccc2)=N/C1=C/c1cccc(OC(=O)c2cccs2)c1	-9%	-3%
CCOc1ccc(NC(=O)c2cc3cc4cc(OC)ccc4nc3s2)cc1	-29%	-28%
O=C(Cc1ccc(S(=O)(=O)N2CCOCC2)s1)NCCc1ccc(F)cc1	i	-10%
COc1cccc(NC(=S)NCCCN2CCOCC2)c1	-19%	-8%

Overlap with the part before: two compounds, then new ones.
SMILES	VACV mCherry inh	VACV Venus inh
O=C(Cc1ccc(S(=O)(=O)N2CCOCC2)s1)NCCc1ccc(F)cc1	i	-10%
COc1cccc(NC(=S)NCCCN2CCOCC2)c1	-19%	-8%
O=c1[nH]cnc2n[nH]nc12	-28%	-18%
CC(=O)c1ccc(NC(=O)CSC(=S)N2CCCC2)cc1	-13%	7%
C(#CCN1CCOCC1)CCCN1CCOCC1	i	-6%
C[C@@H]1CN([C@@H](C)CO)C(=O)c2cc(NC(=O)CCC(F)(F)F)ccc2O[C@H]1CN(C)S(=O)(=O)c1ccc(Cl)cc1	-9%	-21%
COc1ccc(Cl)cc1NC(=O)Cn1c(=O)n2nc(-c3ccccc3)nc2c2ccccc21	-7%	-5%
CC1=NN(c2cc(Cl)c(S(=O)(=O)O)cc2Cl)C(=O)C1	-7%	6%
CCOC(=O)N1CCN(S(=O)(=O)CCNC(=O)c2ccc(F)cc2)CC1	-12%	-4%
O=C(C1=C[C@@H](C2CCCCC2)C[C@@H](OCc2ccc(CO)cc2)O1)N1CCOCC1	i	-26%
Nc1c(C(=O)c2ccccc2)sc2nsc(SCCN3CCOCC3)c12	i	8%
CCn1cc(C(=O)Nc2ccc3c(c2)OCCO3)c2cc(OC)c(OC)cc2c1=O	i	-11%
CC1Cc2ccccc2N1C(=S)Nc1cccc(S(=O)(=O)N(C)C)c1 (stereo unspecified)	-28%	-9%
COc1cccc(C2Nc3ccccc3NC3=C2C(=O)CC(C)(C)C3)c1OC (stereo unspecified)	-20%	-19%
CCOP(=O)(OCC)C(NC(=O)c1cccs1)c1ccccc1 (stereo unspecified)	-5%	13%
COCCNc1nc(Oc2cccc(NC(C)=O)c2)c2sccc2n1	9%	-12%
CCCCCN(C(=O)CSc1n[nH]c(-c2ccc(C)cc2)n1)c1c(N)n(CCCC)c(=O)[nH]c1=O	-24%	-17%
CCC1(c2ccc(C)cc2)NC(=O)N(C(C)C(=O)Nc2ccc(N3CCOCC3)cc2)C1=O (stereo unspecified)	-1%	-11%
CS(=O)(=O)c1ccc(Cl)c(NC(=O)c2cc(S(=O)(=O)N3CCOCC3)ccc2N2CCCC2)c1	-9%	-6%
O=C(Nc1ccn(CCCNCc2cccc3ccccc23)c(=O)n1)OCc1ccccc1	-25%	-5%
Cc1cc(C)c(NC(=O)COC(=O)C2=COCCO2)c(Cl)c1	-14%	-17%
Cc1cc(NC(=S)N(CCCN2CCOCC2)Cc2ccco2)ccc1Cl	-29%	-17%
COc1cc(C)c(NC(=O)c2cccc(S(=O)(=O)N3CCCC3)c2)cc1OC	-8%	-11%
O=C(N/N=C/c1ccc([N+](=O)[O-])cc1)c1cccc(N2CCCC2=O)c1	i	-8%
COc1ccc(-c2nc3cc(C(C)C)ccc3o2)cc1NC(=O)COc1ccc(C)cc1C	-20%	-20%
Cc1ccc(CN(CC(=O)N/N=C/c2ccco2)S(=O)(=O)c2ccc(C)cc2)cc1	/	-25%
COc1ccc(CN(C)C(=O)c2ccc(NS(=O)(=O)c3ccc(C)c([N+](=O)[O-])c3)cc2)c(OC)c1OC	-12%	-20%
Further records.
SMILES	VACV mCherry inh	VACV Venus inh
COc1ccc([C@@H](O)[C@@H](N)c2ccccc2)cc1	i[7.34 µM]	-3%[7.34 µM]
COCCn1c(SCc2cccnc2)nnc1-c1c[nH]c2ccccc12	-8%	11%
Cc1ccc(Cn2c(NC(=O)c3ccco3)nc3ccccc32)cc1	/	-17%
COc1ccc(C(=O)c2coc3ccc(O)c(CN(C)C)c23)cc1	i	2%
O=C(COc1ccc(F)cc1)Nc1ccc2nc(SCC(=O)N3CCc4ccccc43)sc2c1	-17%	-16%
COc1ccc(C(=O)Nc2c(C)csc2C(=O)O)cc1	-2%	1%
CSc1ccccc1NC(=O)C1=CC(c2cccs2)=NS(=O)(=O)N1C	?	-8%
O=C(NCC1CCCO1)C1CC(=O)N(C2CCCC2)C1 (stereo unspecified)	-15%	-5%
O=C(NCc1ccccc1Cl)[C@H]1CCCN1C(=O)[C@H]1CCCN1C(=O)c1cccs1	34%[activator]	6%
COc1cc(/C=C2/SC(=S)N(CC(=O)Nc3nc4ccccc4s3)C2=O)cc(OC)c1OC	0%	-3%
COc1cccc(C(=O)C2CCCN(C(=O)c3cccc(C#CC(C)(C)O)c3)C2)c1 (stereo unspecified)	-20%	-5%
Cc1ccc(CCNC(=O)C2CCCN2S(=O)(=O)c2ccc3c(c2)CCC(=O)N3)cc1 (stereo unspecified)	-1%	2%
C[C@H](CO)N1C[C@H](C)[C@@H](CN(C)Cc2ccc(Oc3ccccc3)cc2)Oc2c(NS(=O)(=O)c3cn(C)cn3)cccc2C1=O	-2%	-13%
Cc1ccc(NC(=O)CCc2c(C)nn(-c3ccc(N4CCCCC4)nn3)c2C)cc1C	-18%	-20%
O=S(=O)(c1cccc2cccnc12)N1CCCc2ccccc21	i	5%
Cc1nn(-c2ccccc2)c(C)c1NC(=O)COC(=O)CCOc1ccccc1	0%	-22%
Cc1ccn2c(Nc3ccccc3)c(-c3ccccn3)nc2c1	2.2µM*	-14%
COc1ccc(-c2cc(-c3n[nH]c(=S)n3-c3cc(OC)ccc3OC)[nH]n2)cc1	-25%	-11%
CCCCNS(=O)(=O)c1ccc(NS(=O)(=O)c2c(C)cc(C)cc2C)cc1	-20%	-16%
FC(F)(F)c1cc(-c2ccco2)nc2ncnn12	-26%	-3%
C=CCNC(=O)c1onc(CSc2ccc(F)c(F)c2)c1C(=O)NCC=C	i	-4%
Cc1ccc(C(=O)c2cn[nH]c2-c2ccccc2O)cc1	/	-19%
CSc1nc2ccc(NC(=O)c3ccco3)cc2s1	-3%	-9%
O=C(NCCCn1ccnc1)C(=O)NCC1OCCN1S(=O)(=O)c1ccccc1 (stereo unspecified)	-12%	-10%
Cc1c(NC(=O)C(C)OC(=O)CCc2c[nH]c3ccccc23)c(=O)n(-c2ccccc2)n1C (stereo unspecified)	i	-5%

Ordered by SMILES length (low to high): 4 of the compounds above.
SMILES	VACV mCherry inh	VACV Venus inh
COc1ccc(C(=O)c2coc3ccc(O)c(CN(C)C)c23)cc1	i	2%
COc1ccc(OC)c(/C=N/Nc2cc(C)nc(N3CCOCC3)n2)c1	-20%	-6%
CSc1ccccc1NC(=O)C1=CC(c2cccs2)=NS(=O)(=O)N1C	?	-8%
O=C(Cc1ccc(S(=O)(=O)N2CCOCC2)s1)NCCc1ccc(F)cc1	i	-10%

4 entries from above, as comma-separated lines.
Compound,VACV mCherry inh,VACV Venus inh
Cc1ccc(C(=O)c2cn[nH]c2-c2ccccc2O)cc1,/,-19%
CSc1nc2ccc(NC(=O)c3ccco3)cc2s1,-3%,-9%
COc1ccc(-c2cc(-c3n[nH]c(=S)n3-c3cc(OC)ccc3OC)[nH]n2)cc1,-25%,-11%
COc1ccc(C(=O)Nc2c(C)csc2C(=O)O)cc1,-2%,1%

Given as comma-separated lines: entries from further up.
Structure,VACV mCherry inh,VACV Venus inh
COc1ccc([C@@H](O)[C@@H](N)c2ccccc2)cc1,i[7.34 µM],-3%[7.34 µM]
COCCn1c(SCc2cccnc2)nnc1-c1c[nH]c2ccccc12,-8%,11%
Cc1ccc(Cn2c(NC(=O)c3ccco3)nc3ccccc32)cc1,/,-17%
COc1ccc(C(=O)c2coc3ccc(O)c(CN(C)C)c23)cc1,i,2%
O=C(COc1ccc(F)cc1)Nc1ccc2nc(SCC(=O)N3CCc4ccccc43)sc2c1,-17%,-16%

Remaining list, next part.
SMILES	VACV mCherry inh	VACV Venus inh
Cc1ccc(OCC(=O)OCC(=O)c2c(N)n(C)c(=O)n(C)c2=O)cc1C	-10%	3%
CCCC(=O)Nc1ccc(NC(=O)c2cc3ccccc3o2)c(OC)c1	-11%	-28%
CCCOC(=O)c1[nH]c2c(c1C)C(=O)CC(c1cc(OC)c(OC)c(OC)c1)C2 (stereo unspecified)	?	-26%
O=C(CSc1ccc(Cl)cc1)NC1CC1	-3%	-15%
CC1=CC2C(C(O)CC3(C)C2CC(C)C32OCOC23COCO3)C2(C)C/C(=C\O)C(=O)C=C12 (stereo unspecified)	?	13µM*
O=C(N/N=C/c1ccc2c(c1)OCO2)c1cccnc1	?	1%
Cc1nnc(SCC(=O)Nc2ncc(S(=O)(=O)c3ccc([N+](=O)[O-])cc3)s2)s1	-11%	-16%
Cc1cc2c(=O)n(Cc3ccco3)c(SCC(=O)NCc3ccco3)nc2s1	-20%	-14%
CCOCCCn1c(SCC(=O)NCc2ccccc2)nc2c(sc3ccccc32)c1=O	-3%	2%
COc1ccc2c(c1)C1=NN(/C(C)=C\C(C)=O)C(c3ccccc3)C1CC2 (stereo unspecified)	-3%	-4%
O=C(CSc1ccccc1)Nc1nc2ccccc2[nH]1	-4%	-28%
COc1ccc(-c2cnnn2-c2ccc(NC(=O)/C=C/c3ccc(OC)c(OC)c3)cc2)cc1	-5%	-11%
COc1cccc(C2CC(c3cccs3)=NN2C(=O)CSc2nc3ccccc3o2)c1OC (stereo unspecified)	-14%	-11%

Rows are unselected (roughly 0.82% active in at least one column).
